Screening results deposited in PubChem by Broad Institute.
MLL AF4-AF9 inh: inhibitors of AF4 peptide binding to AF9, primary screen, biochemical, AlphaScreen, biotin-AF4 peptide, FLAG-AF9, single point. AID 651704, 2012. inhibition, % at 10 µM. 350,000 tested, 0.47% active. Protein AF-9 (Homo sapiens), P42568;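 active means every replicate reaching a set inhibition limit, whatever the replicate mean, cut at about 25% in these data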;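 further: 0% = plate neutral control median and 100% = total signal loss; the record names both 10 and 1 µM as test concentration; the first replicate is given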
Target sequence (P42568 whole entry, looked up): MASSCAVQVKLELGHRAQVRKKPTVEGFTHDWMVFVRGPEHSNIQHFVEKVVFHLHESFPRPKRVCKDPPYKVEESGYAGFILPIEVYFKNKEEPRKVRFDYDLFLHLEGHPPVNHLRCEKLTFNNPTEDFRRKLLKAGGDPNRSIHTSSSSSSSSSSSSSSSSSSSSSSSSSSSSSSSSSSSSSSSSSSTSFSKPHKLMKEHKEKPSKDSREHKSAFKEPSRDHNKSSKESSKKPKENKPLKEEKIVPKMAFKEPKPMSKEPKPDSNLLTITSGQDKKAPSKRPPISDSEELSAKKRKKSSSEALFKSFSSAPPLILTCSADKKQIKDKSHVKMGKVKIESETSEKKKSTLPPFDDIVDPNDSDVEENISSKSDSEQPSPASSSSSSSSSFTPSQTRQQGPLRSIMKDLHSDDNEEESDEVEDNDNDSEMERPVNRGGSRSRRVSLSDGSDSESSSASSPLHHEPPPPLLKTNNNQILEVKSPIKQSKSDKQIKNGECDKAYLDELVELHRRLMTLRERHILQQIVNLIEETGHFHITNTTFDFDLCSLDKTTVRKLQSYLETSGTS
FGF22 binding: binders of human FGF22 protein, primary screen, FGF22 synaptogenesis inhibitor project, biophysical, thermal shift, single point. Fibroblast growth factor 22 (Homo sapiens), Q9HCT0. recombinant FGF22 thermal shift, SYPRO orange fluorescence; percent of sucrose octasulfate shift, DMSO zero. calls only at 9.99 µM. 340,000 tested, 1.5% active. AID 651658, 2012;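 active means melting point raised past a set limit in the mean and every replicate; three in four hits are not shown here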
Target sequence (Q9HCT0 whole entry, looked up): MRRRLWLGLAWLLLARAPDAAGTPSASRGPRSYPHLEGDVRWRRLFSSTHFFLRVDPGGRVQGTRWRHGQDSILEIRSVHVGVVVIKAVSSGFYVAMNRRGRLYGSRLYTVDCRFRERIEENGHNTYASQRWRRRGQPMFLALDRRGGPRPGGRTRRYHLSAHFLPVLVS
* hit, by the source's call; i = inactive; x = no result given.

SMILES	MLL AF4-AF9 inh	FGF22 binding
COCC(=O)N1CC2(CCN(Cc3cncnc3)CC2)c2c(n(C)c3cc(OC)ccc23)[C@H]1CO	-11	i
C[C@@H]1CN([C@H](C)CO)C(=O)c2cc(NC(=O)Nc3ccccc3)ccc2O[C@@H](C)CCCCO[C@H]1CN(C)Cc1ccc2c(c1)OCO2	19	i
O=C(c1ccc2c(c1)OCO2)N1CCCCN2[C@H](C1)[C@@H](c1ccc(-c3ccccc3)cc1)[C@@H]2CO	-3.5	i
CCCNC(=O)N[C@@H]1CC[C@@H](CCn2cc(C3CCCCC3)nn2)O[C@H]1CO	-11	i
C[C@@H]1CN([C@@H](C)CO)C(=O)c2ccccc2-c2ccccc2CO[C@@H]1CN(C)Cc1ccc(Cl)c(Cl)c1	3.5	i
COc1ccc(-c2ccc([C@H]3[C@H](CO)N4CCCCN(CC5CCOCC5)C[C@@H]34)cc2)cc1	3.6	i
C[C@H](CO)N1C[C@H](C)[C@H](CN(C)S(=O)(=O)c2cn(C)cn2)Oc2cc(C#Cc3cccc(F)c3)ccc2S1(=O)=O	1.0	i
C[C@@H]1CCCCO[C@H](CN(C)C(=O)Nc2cccc3ccccc23)[C@H](C)CN([C@@H](C)CO)C(=O)c2cc(NC(=O)NC3CCCCC3)ccc2O1	1.9	i
O=C(C[C@@H]1CC[C@H](NC(=O)c2ccncc2)[C@H](CO)O1)NCCc1ccncc1	-0.8	i
Cc1noc(C)c1S(=O)(=O)N(C)C[C@@H]1OCCCC[C@H](C)Oc2ccc(N(C)C)cc2C(=O)N([C@@H](C)CO)C[C@H]1C	4.0	i
C[C@@H]1CN([C@@H](C)CO)C(=O)c2cc(C#CC3(O)CCCC3)cnc2O[C@@H]1CN(C)C(=O)Nc1ccc2c(c1)OCO2	-5.5	i
C[C@H]1CCCCO[C@H](CN(C)C(=O)C2CCCCC2)[C@@H](C)CN([C@@H](C)CO)C(=O)c2cc(NS(=O)(=O)c3ccc(F)cc3)ccc2O1	4.5	i
O=C(C[C@H]1C[C@H]2c3cc(NS(=O)(=O)c4ccc(F)cc4)ccc3O[C@H]2[C@@H](CO)O1)NC1CCCC1	-1.6	i
CC(C)CC#Cc1ccc2c(c1)O[C@@H](CN(C)C(=O)c1ccncc1)[C@H](C)CN([C@H](C)CO)S2(=O)=O	2.3	i
COc1ccc2c3c([nH]c2c1)[C@H](CO)N(C(=O)c1ccncc1)CC31CCN(C(=O)NC(C)C)CC1	-17	i
N#C[C@@H]1[C@H](c2ccccc2)[C@H](CO)N1C(=O)Cc1ccccn1	-4.2	i
COc1ccc(S(=O)(=O)N(C)C[C@@H]2Oc3ccc(NS(C)(=O)=O)cc3C(=O)N([C@H](C)CO)C[C@H]2C)cc1	-1.2	i
C[C@H]1CN([C@@H](C)CO)S(=O)(=O)c2ccc(C#CCC3CCCC3)cc2O[C@H]1CN(C)C	9.7	i
COCC(=O)Nc1ccc2c(c1)OC[C@H](C)N(Cc1ccccc1F)C[C@H](C)[C@H](OC)CN(C)C2=O	2.7	i
CN(C)C(=O)C[C@@H]1C[C@H]2c3cc(NS(=O)(=O)c4ccccc4)ccc3O[C@H]2[C@H](CO)O1	-3.4	i
COc1ccc(S(=O)(=O)Nc2cccc3c2O[C@H](CN(C)C(=O)NC2CCCCC2)[C@@H](C)CN([C@@H](C)CO)C3=O)cc1	-1.8	i
CCNC(=O)[C@@H]1[C@@H](CO)[C@@H]2Cn3c(ccc(-c4ccccc4)c3=O)[C@H]1N2Cc1cccnc1	0.5	i
COc1ccc(S(=O)(=O)N(C)C[C@H]2OCCCC[C@@H](C)Oc3ccc(NS(=O)(=O)c4c(C)noc4C)cc3C(=O)N([C@@H](C)CO)C[C@@H]2C)cc1	0.1	i
CO[C@H]1CN(C)C(=O)c2cc(NC(=O)Nc3ccccc3F)ccc2OC[C@@H](C)N(C)C[C@@H]1C	-1.5	i
CO[C@H]1CN(C)C(=O)c2cc(NC(=O)c3ccccc3)ccc2OC[C@H](C)N(C(C)=O)C[C@@H]1C	7.3	i

Ten entries already listed, ordered by molecular weight, falling:
SMILES	MLL AF4-AF9 inh	FGF22 binding
C[C@@H]1CCCCO[C@H](CN(C)C(=O)Nc2cccc3ccccc23)[C@H](C)CN([C@@H](C)CO)C(=O)c2cc(NC(=O)NC3CCCCC3)ccc2O1	1.9	i
C[C@@H]1CN([C@H](C)CO)C(=O)c2cc(NC(=O)Nc3ccccc3)ccc2O[C@@H](C)CCCCO[C@H]1CN(C)Cc1ccc2c(c1)OCO2	19	i
COc1ccc(S(=O)(=O)Nc2cccc3c2O[C@H](CN(C)C(=O)NC2CCCCC2)[C@@H](C)CN([C@@H](C)CO)C3=O)cc1	-1.8	i
Cc1noc(C)c1S(=O)(=O)N(C)C[C@@H]1OCCCC[C@H](C)Oc2ccc(N(C)C)cc2C(=O)N([C@@H](C)CO)C[C@H]1C	4.0	i
C[C@@H]1CN([C@@H](C)CO)C(=O)c2ccccc2-c2ccccc2CO[C@@H]1CN(C)Cc1ccc(Cl)c(Cl)c1	3.5	i
CC(C)CC#Cc1ccc2c(c1)O[C@@H](CN(C)C(=O)c1ccncc1)[C@H](C)CN([C@H](C)CO)S2(=O)=O	2.3	i
CO[C@H]1CN(C)C(=O)c2cc(NC(=O)Nc3ccccc3F)ccc2OC[C@@H](C)N(C)C[C@@H]1C	-1.5	i
O=C(c1ccc2c(c1)OCO2)N1CCCCN2[C@H](C1)[C@@H](c1ccc(-c3ccccc3)cc1)[C@@H]2CO	-3.5	i
CCCNC(=O)N[C@@H]1CC[C@@H](CCn2cc(C3CCCCC3)nn2)O[C@H]1CO	-11	i
N#C[C@@H]1[C@H](c2ccccc2)[C@H](CO)N1C(=O)Cc1ccccn1	-4.2	i

New compounds follow
SMILES	MLL AF4-AF9 inh	FGF22 binding
N#C[C@@H]1[C@H](c2ccccc2)[C@@H](CO)N1C(=O)CN1CCOCC1	-0.7	i
CN(C)C(=O)C[C@@H]1CC[C@@H](NC(=O)C2CC2)[C@@H](CO)O1	-2.1	i
COC(=O)[C@@H]1[C@@H](CO)[C@@H]2Cn3c(ccc(-c4cccc(C(=O)N(C)C)c4)c3=O)[C@@H]2N1CC1CC1	-1.3	i
Cc1ccc(C2=CC(=O)CC(C)(C)C2=O)cc1	-1.2	i
CNC[C@H]1Oc2ccc(NC(=O)Nc3ccc(C(F)(F)F)cc3)cc2C(=O)N([C@H](C)CO)C[C@H]1C	1.5	i
CN1CCN(C(=O)C[C@H]2CC[C@H](NC(=O)c3ccc4c(c3)OCO4)[C@H](CO)O2)CC1	0.5	i
CCCC#Cc1ccc2c(c1)O[C@@H](CN(C)Cc1ccc3c(c1)OCO3)[C@@H](C)CN([C@H](C)CO)S2(=O)=O	-3.9	i
COc1cccc(CN2[C@H](CO)[C@H](c3ccccc3)C23CN(C(=O)C2CCCCC2)C3)c1	1.8	i
CO[C@@H]1CN(C)C(=O)c2ccc(NC(=O)Nc3ccccc3)cc2OC[C@H](C)N(C(C)=O)C[C@H]1C	1.0	i
C[C@H]1CN([C@@H](C)CO)C(=O)c2cc(-c3cccnc3)cnc2O[C@H]1CN(C)C(=O)C1CCOCC1	-4.2	i
C[C@H](CO)N1C[C@H](C)[C@H](CN(C)CC2CCCCC2)OCCCC[C@H](C)Oc2ccc(NC(=O)c3ccccc3)cc2C1=O	15	i
C[C@H]1CN([C@@H](C)CO)C(=O)c2cc(NC(=O)C3CCCCC3)ccc2O[C@@H]1CN(C)C(=O)Nc1cccc2ccccc12	-1.9	i
CNC[C@H]1Oc2ccc(NS(=O)(=O)c3ccc(F)cc3)cc2CC(=O)N([C@H](C)CO)C[C@H]1C	-15	i
C[C@H](CO)N1C[C@H](C)[C@H](CN(C)C(=O)Nc2ccc3c(c2)OCO3)Oc2ccc(NC(=O)Cc3ccccc3)cc2CC1=O	-1.5	i
CC(C)NC(=O)Nc1ccc2c(c1)CC(=O)N([C@H](C)CO)C[C@H](C)[C@@H](CN(C)Cc1ccc(C(F)(F)F)cc1)O2	1.6	i
CCC(=O)N1[C@@H]2CN(C(=O)c3ccccc3F)c3ccccc3[C@@H]2[C@@H]1CO	-1.0	i
C[C@H]1CN([C@@H](C)CO)C(=O)c2cc(C3=CCCC3)cnc2O[C@H]1CN(C)C(=O)Nc1cccc(F)c1	0.0	i
CC=Cc1ccc2n(c1=O)C[C@@H]1[C@@H](CO)[C@H](C(=O)N[C@@H](C)c3ccccc3)[C@H]2N1Cc1cncnc1 (mixture of isomers)	0.9	i
Cc1ccccc1-c1ccc([C@@H]2[C@@H](CO)N3C(=O)CN(C(=O)Cc4ccccn4)C[C@H]23)cc1	-1.8	i
C[C@H](CO)N1C[C@H](C)[C@H](CN(C)C)Oc2cc(-c3ccc(C(=O)N(C)C)cc3)ccc2S1(=O)=O	-3.8	i
Cn1cnc(S(=O)(=O)N2C[C@H](O)COC[C@H]3O[C@@H](CC(=O)N4CCN(c5ccccc5)CC4)CC[C@@H]32)c1	-2.3	i
C[C@@H]1CN([C@H](C)CO)C(=O)c2cc(-c3ccccc3)cnc2O[C@@H]1CN(C)CC1CC1	0.7	i
Cc1ccc(S(=O)(=O)Nc2ccc3c(c2)C(=O)N([C@H](C)CO)C[C@@H](C)[C@H](CN(C)Cc2ccc(C(=O)Nc4ccccc4N)cc2)O3)cc1	-2.6	i
CC(C)NC(=O)Nc1ccc2c(c1)CC(=O)N([C@H](C)CO)C[C@@H](C)[C@H](CN(C)Cc1ccc3c(c1)OCO3)O2	-1.0	i
COc1ccc(CNC(=O)C[C@H]2C[C@H]3c4cc(NC(=O)C5CCC5)ccc4O[C@H]3[C@@H](CO)O2)cc1	-18	i

Further compounds follow.
SMILES	MLL AF4-AF9 inh	FGF22 binding
COc1ccc(S(=O)(=O)N(C)C[C@H]2Oc3cc(C#CC4CCCCC4)ccc3S(=O)(=O)N([C@@H](C)CO)C[C@@H]2C)cc1	0.2	i
O=C(CN1CCOCC1)NCC[C@@H]1CC[C@H](NS(=O)(=O)c2ccc(F)cc2)[C@H](CO)O1	0.8	i
O=C(c1ccccc1)N1C[C@@H]2[C@H](c3ccccc31)[C@H](CO)N2Cc1cc(F)ccc1F	0.8	i
C[C@@H]1CN([C@H](C)CO)C(=O)c2cc(C#CCN(C)C)cnc2O[C@H]1CN(C)Cc1ccc(C(=O)O)cc1	-12	i
Cc1ccc(S(=O)(=O)N(C)C[C@@H]2Oc3ccc(NS(=O)(=O)c4ccccc4)cc3CC(=O)N([C@H](C)CO)C[C@H]2C)cc1	-10	i
COc1ccc(CNC(=O)C[C@@H]2CC[C@H]3[C@H](COc4ccc(NC(C)=O)cc4C(=O)N3C)O2)cc1	0.4	i
C[C@@H]1CN([C@@H](C)CO)C(=O)c2cc(C3=CCCCC3)cnc2O[C@@H]1CN(C)C(=O)Cc1ccccc1	-0.3	i
COc1ccc2c3c(n(C)c2c1)[C@H](CO)N(C(=O)CN1CCOCC1)CC31CN(C)C1	3.5	i
C[C@@H]1CN([C@@H](C)CO)C(=O)c2cc(NS(C)(=O)=O)ccc2O[C@@H]1CN(C)Cc1ccccc1	-2.9	i
C[C@@H]1CN([C@H](C)CO)S(=O)(=O)c2ccc(C#CCC3CCCC3)cc2O[C@@H]1CN(C)C(=O)c1ccccn1	8.1	i
C[C@@H]1CCCCO[C@@H](CN(C)Cc2ccc(Cl)c(Cl)c2)[C@@H](C)CN([C@@H](C)CO)C(=O)c2cc(NC(=O)NC3CCCCC3)ccc2O1	4.1	i
COc1ccc(S(=O)(=O)Nc2ccc3c(c2)CC(=O)N([C@H](C)CO)C[C@H](C)[C@H](CN(C)CC2CCCCC2)O3)cc1	-1.3	i
C[C@H](CO)N1C[C@H](C)[C@H](CN(C)C(=O)NC2CCCCC2)Oc2ccc(NC(=O)c3ccncc3)cc2C1=O	-3.0	i
C[C@@H]1CN([C@@H](C)CO)C(=O)c2cc(NC(=O)C3CCCCC3)ccc2O[C@@H]1CN(C)C(=O)Nc1ccc(C(F)(F)F)cc1	-0.1	i
COc1ccccc1NC(=O)N1CCCCN2[C@H](C1)[C@@H](c1ccc(-c3cccc(C)c3)cc1)[C@@H]2CO	-5.3	i
CCOC(=O)C1=C(C(=O)OCC)C2N(Cc3ccccc3)c3ccccc3[C@@]23C[C@@H](C(=O)OC)N(S(=O)(=O)c2ccc(C(F)(F)F)cc2)C3=N1 (some centres not stated)	-1.9	x
C[C@H](CO)N1C[C@H](C)[C@H](CN(C)CC2CCCCC2)Oc2ccc(NC(=O)Nc3ccccc3)cc2CC1=O	2.8	i
C[C@@H]1CN([C@@H](C)CO)C(=O)Cc2cc(NS(=O)(=O)c3ccc(F)cc3)ccc2O[C@@H]1CN(C)S(C)(=O)=O	-1.9	i
O=C(C[C@H]1C[C@@H]2c3cc(NC(=O)Nc4ccccc4F)ccc3O[C@@H]2[C@H](CO)O1)NCCc1ccccc1	0.1	i
Cc1noc(C)c1S(=O)(=O)Nc1ccc2c(c1)CC(=O)N([C@H](C)CO)C[C@H](C)[C@@H](CN(C)Cc1ccccc1)O2	2.8	i
CN1C(=O)c2cc(NC(=O)Cc3ccccc3)ccc2OC[C@H]2O[C@H](CC(=O)NC3CCC3)CC[C@H]21	-0.3	i
CC=Cc1ccc2n(c1=O)C[C@@H]1[C@@H](CO)[C@H](C(=O)N3CCOCC3)[C@H]2N1CC1CC1 (mixture of isomers)	0.2	i
CCCNC(=O)N(C)C[C@@H]1Oc2ncc(C#CC3CC3)cc2C(=O)N([C@H](C)CO)C[C@@H]1C	-18	i
C[C@@H]1CN([C@@H](C)CO)C(=O)c2cc(NC(=O)CCN3CCOCC3)ccc2O[C@H]1CN(C)S(=O)(=O)c1cn(C)cn1	-0.7	i
C[C@@H]1CN([C@H](C)CO)C(=O)c2cc(-c3ccccc3F)cnc2O[C@H]1CN(C)C(=O)C1CCCCC1	-2.3	i
CCCNC(=O)N1CC2(C1)[C@H](c1ccccc1)[C@H](CO)N2Cc1ccc(Cl)cc1	1.3	i
CN(C)C(=O)C[C@@H]1CC[C@H](NC(=O)NC2CCCCC2)[C@H](CO)O1	-2.3	i

Only part of the results is shown (hit frequency here may not be typical).
